RE007 growth inh = less growth of the S. pombe RE007 Vpr strain | Potency, µM (doses to about 92.2 µM), inactives show at the top dose activity change, negative = less growth | AID 651644 | S. pombe RE007 Vpr strain, BacTiter-Glo ATP luminescence, 24 h; control for the full effect not named in the record | 360,000 tested, 0.21% active; active = well fitted falling curve with a large enough effect; inconclusive = small, poorly fitted or top-dose-only effect; inactive = no such curve, though single readings can be large or run the other way;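 further: on the % scale 0 is the no-effect control and ±100 the full control effect; nearly all actives have a fitted effect of over 50% in size; the assay follows cell death caused by Vpr and the record does not say whether a fall means rescue or toxicity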
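Fission yeast strain RE007, carrying one chromosomally integrated HIV-1 vpr copy, was seeded at OD 0.01 in PMG+AL medium with 23 nL pinned compound. After 24 h at 30 °C and 99% humidity, viability was read by BacTiter-Glo luminescence.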
SARS PLpro yeast = SARS-CoV PLP inhibition in yeast; S. cerevisiae expressing SARS-CoV PLpro, growth rescue; control for the full effect not named in the record; Potency, µM (series often up to 32.9 µM), without a hit: at the top dose activity, positive = growth rescue; 330,000 tested, 0.19% active; AID 485353; active means well fitted rising curve with a large enough effect; inconclusive means small, poorly fitted or top-dose-only effect; inactive means no such curve, though single readings can be large or run the other way; further: 0% is about no effect; nearly all actives have a fitted effect of over 55% in size; growth read by luminescence after 48 h
Cruzain inh noDet = blocks cruzain activity in detergent-free assay. purified cruzain, Z-FR-AMC fluorescence, no detergent. Potency, µM, for the others: max response, negative = inhibition, usual class: inhibitors. 200,000 tested, 2.3% active. P25779;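 further: plate controls were enzyme without inhibitor for no effect and buffer without enzyme for full effect; nearly all actives have a fitted effect of over 40% in size; top concentration of the series not given in the record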
Target sequence (P25779 123-467 limits assumed): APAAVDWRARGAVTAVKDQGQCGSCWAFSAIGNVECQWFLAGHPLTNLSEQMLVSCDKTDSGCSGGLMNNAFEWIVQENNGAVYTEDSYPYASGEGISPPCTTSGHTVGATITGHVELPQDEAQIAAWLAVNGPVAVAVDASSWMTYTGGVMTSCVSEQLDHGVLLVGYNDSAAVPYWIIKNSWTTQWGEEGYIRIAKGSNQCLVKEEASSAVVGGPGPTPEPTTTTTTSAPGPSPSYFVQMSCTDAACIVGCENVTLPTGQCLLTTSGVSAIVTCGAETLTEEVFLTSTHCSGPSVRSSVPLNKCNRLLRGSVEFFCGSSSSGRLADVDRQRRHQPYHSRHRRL
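Detergent-free condition (0.00005% Triton X-100) in acetate buffer pH 5.5 with DTT. 1.5 nM enzyme and compound were pre-mixed 15 min, then 2 uM Z-FR-AMC substrate added; reaction progress from fluorescence change between first and third reads (60 s).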
MARV entry inh = blocks Marburg virus binding to or entry into cells. Marburg virus pseudotyped entry inhibition, cell reporter; control for the full effect not named in the record; about a third of the inactives were read at about 46 µM. 300,000 tested, 1.8% active. AID 540276. Potency, µM (doses to about 37.8 µM), inactives show top-dose activity change, negative = inhibition, usual class: inhibitors; active = well fitted inhibition curve with a large enough effect; inconclusive = small, poorly fitted or top-dose-only effect, or effect the other way; inactive = flat fitted curve, though single readings scatter; tested in HEK293 cells; about a fifth of its hits are not listed in these tables; further: on the % scale 0 is the no-effect control and ±100 the full control effect; luciferase read-out
Lassa entry inh = blocks Lassa virus binding to or entry into cells. Lassa virus pseudotype entry inhibition, cell reporter; control for the full effect not named in the record. Potency, µM (doses to about 37.9 µM), for the others: at the highest dose activity change, negative = inhibition, hits mostly inhibitors. 300,000 tested, 1.2% active. AID 540256; active means well fitted inhibition curve with a large enough effect; inconclusive means small, poorly fitted or top-dose-only effect, or effect the other way; inactive means flat fitted curve, though single readings scatter; tested in HEK293 cells; further: on the % scale 0 is the no-effect control and ±100 the full control effect; nearly all actives have a fitted effect of over 50% in size; luciferase read-out
Cruzain inh Det = cruzain (T. cruzi) inhibition with detergent; P25779; purified cruzain, Z-FR-AMC fluorescence, 0.01% Triton; Potency, µM, inactives show max response, negative = inhibition, hits mostly inhibitors; 200,000 tested, 0.43% active; AID 1478;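 further: plate controls were neutral wells for no effect and buffer without enzyme for full effect; nearly all actives have a fitted effect of over 40% in size; top concentration of the series not given in the record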
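15 min RT preincubation of 1.5 nM cruzain with compound, then 2 uM Z-FR-AMC added; kinetic AMC fluorescence, 60 s delta. Triton X-100 0.01%, pH 5.5.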
StopGo reporter = lowers the luciferase signal of an FMDV 2A StopGo reporter. human cells with a luciferase reporter of 2A StopGo recoding; control for the full effect not named in the record. 410,000 tested, 1.2% active. Potency, µM (doses to about 57.9 µM), inactives show top-dose signal change, negative = less light; active = well fitted falling curve with a large enough effect; inconclusive = small, poorly fitted or top-dose-only effect; inactive = no such curve, though single readings can be large or run the other way; tested in HEK293T cells; further: on the % scale 0 is the no-effect control and ±100 the full control effect; nearly all actives have a fitted effect of over 45% in size; luciferase light after 4 h
NS1 function inh = inhibitors of influenza NS1 protein function. Potency, µM (top dose mostly 46.1 µM), for inactives: at the highest dose activity, positive = more growth. AID 2326. S. cerevisiae slowed by influenza A NS1, growth recovery by OD600. 270,000 tested, 0.4% active; active means well fitted rising curve with a large enough effect; inconclusive means small, poorly fitted or top-dose-only effect; inactive means no such curve, though single readings can be large or run the other way; further: nearly all actives have a fitted effect of over 50% in size
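Recovery from NS1-induced slow growth read by OD600 in budding yeast switched to galactose assay medium (pH 6.0, -URA) at 1:100 dilution. Compound 23 nl per well; the matching strain lacking NS1 serves as control.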
Active calls of the source: *; & = joins results of further samples; [ ] = remark or other dose. Unless noted, the call rests on the fitted dose curve; in most records, active means well fitted curve in the direction sought with a large enough effect; inconclusive means small, poorly fitted or top-dose-only effect, or another doubt; inactive means no such curve, though single readings can be large; an effect the other way counts as inactive or inconclusive. Potency means the concentration at half of the fitted maximal effect.

How did CC1(C)NC(=O)NC2(C)NC(=O)NC(C)(C)C12 (stereo not given) do in these assays?
RE007 growth inh: 13%; SARS PLpro yeast: -3%; Cruzain inh noDet: -11%; MARV entry inh: -2%; Lassa entry inh: -4%; Cruzain inh Det: -0.6%; StopGo reporter: 11%; NS1 function inh: 11%

What do the screens show for `Cc1ccc(SCC(=O)OC(C)C(=O)NCc2ccccc2)cc1` (stereo not given)?
RE007 growth inh: 14%; SARS PLpro yeast: -5%; MARV entry inh: 5%; Lassa entry inh: -1%[46.1 µM]; StopGo reporter: -1%

Results for CCOC(=O)c1c(-c2ccc(C)cc2)csc1NC(=O)c1ccc(C(C)(C)C)cc1 ?
Cruzain inh noDet: -14%; Lassa entry inh: 6%[46.1 µM]; Cruzain inh Det: -0.7%; StopGo reporter: 2%

Results for O=C(Nc1ccccc1)C(c1ccccc1)C1CCCC1 (stereo not given) ?
RE007 growth inh: -3%; SARS PLpro yeast: -16%; Cruzain inh noDet: 10%; MARV entry inh: inconclusive; Lassa entry inh: inconclusive; Cruzain inh Det: -8.3%; StopGo reporter: 0%; NS1 function inh: -12%

What do the screens show for `COc1cccc(NC(=O)CCNS(=O)(=O)c2ccc3c(c2)oc(=O)n3C)c1`?
RE007 growth inh: 11%; SARS PLpro yeast: inconclusive; Cruzain inh noDet: -10%; MARV entry inh: 10%&1%[46.1 µM]; Lassa entry inh: -11%&-1%[46.1 µM]; Cruzain inh Det: 0.4%; StopGo reporter: 0%&8%; NS1 function inh: 6%

Results for N#Cc1ccccc1OCC(=O)N(Cc1nnc(-c2ccccc2Cl)o1)C1CC1 ?
RE007 growth inh: -9%; SARS PLpro yeast: -1%; MARV entry inh: 7%[46.1 µM]; Lassa entry inh: -15%; StopGo reporter: 43%[activator]

Results for CCc1ccccc1NC(=S)N(CCN1CCOCC1)Cc1ccccc1F ?
RE007 growth inh: -11%; SARS PLpro yeast: 1%; MARV entry inh: inconclusive; Lassa entry inh: -6%; StopGo reporter: -8%; NS1 function inh: 2%

What do the screens show for `Cc1noc(C)c1CSCC(=O)Nc1nc2ccccc2s1`?
RE007 growth inh: -14%; SARS PLpro yeast: -6%; MARV entry inh: -14%[46.1 µM]; Lassa entry inh: 4%[46.1 µM]; StopGo reporter: -2%; NS1 function inh: 0%

Results for CC(C)=C1C2CCC1C1C(=O)N(NC(=O)COc3ccc(C(C)(C)C)cc3)C(=O)C21 (stereo not given) ?
RE007 growth inh: 2%; SARS PLpro yeast: -26%; Cruzain inh noDet: 6%; MARV entry inh: inconclusive; Lassa entry inh: inconclusive; Cruzain inh Det: -7.5%; StopGo reporter: -25%; NS1 function inh: 9%

What do the screens show for `CC(C)(CN1CCc2ccccc2C1)NS(=O)(=O)c1ccc(Cl)cc1`?
RE007 growth inh: -26%; SARS PLpro yeast: -2%; MARV entry inh: -17%[46.1 µM]; Lassa entry inh: -27%; StopGo reporter: -7%; NS1 function inh: -2%

How did CCCCNC(=O)Cn1nc([N+](=O)[O-])c([N+](=O)[O-])c1C do in these assays?
RE007 growth inh: 7%; SARS PLpro yeast: 8%; Cruzain inh noDet: 3%; MARV entry inh: -24%; Lassa entry inh: -7%; Cruzain inh Det: -1.7%; StopGo reporter: -6%; NS1 function inh: -9%

How did COc1ccc(CCNC(=O)COC(=O)C23CC4CC(CC(Br)(C4)C2)C3)cc1 do in these assays?
SARS PLpro yeast: 17%; Cruzain inh noDet: 9%; MARV entry inh: inconclusive; Lassa entry inh: -7%; Cruzain inh Det: -3.6%; StopGo reporter: -2%; NS1 function inh: -18%

How did Cc1cc(C)c(C#N)c(SCC(=O)CC(=O)OC(C)C)n1 do in these assays?
RE007 growth inh: 5%; SARS PLpro yeast: -6%; Cruzain inh noDet: -12%; MARV entry inh: 4%; Lassa entry inh: -3%; Cruzain inh Det: -4.5%; StopGo reporter: -23%; NS1 function inh: 2%

Results for O=S(=O)(Nc1cccc(S(=O)(=O)N2CCCC2)c1)c1cccs1 ?
RE007 growth inh: 1%; SARS PLpro yeast: 5%; MARV entry inh: inconclusive; Lassa entry inh: -3%; StopGo reporter: 0%

How did Cc1cc(C)n(C(C)CC(=O)Nc2ccc3c(c2)OCCO3)n1 (stereo not given) do in these assays?
RE007 growth inh: -3%; SARS PLpro yeast: 10%; StopGo reporter: -19%; NS1 function inh: -7%

Results for COc1ccccc1/C=N/NC(=O)CC(=O)NCc1ccccc1 ?
RE007 growth inh: -11%; SARS PLpro yeast: -3%; MARV entry inh: inconclusive; Lassa entry inh: 1%; StopGo reporter: 1%

What do the screens show for `CCOc1ccccc1NC(=O)Cn1cc(C(=O)c2ccc(Cl)cc2)c(=O)c2ccc(C)nc21`?
Cruzain inh noDet: 1%; Lassa entry inh: 16%[46.1 µM]; Cruzain inh Det: -0.1%; StopGo reporter: -3%

What do the screens show for `O=C(Cn1c2[n+](c3ccc(C(F)(F)F)cc31)CCCCC2)Nc1ccc(Br)cc1`?
RE007 growth inh: -2%; SARS PLpro yeast: 3%; MARV entry inh: 14%[46.1 µM]; Lassa entry inh: -13%; StopGo reporter: 6%; NS1 function inh: -3%

Results for CCOc1ccc(N2C(=O)CC(N(CCc3ccc(OC)c(OC)c3)C(=O)/C=C/C(=O)O)C2=O)cc1 (stereo not given) ?
RE007 growth inh: 3%; SARS PLpro yeast: 2%; StopGo reporter: -21%; NS1 function inh: -4%

What do the screens show for `O=C(CN1CCN(Cc2ccc(Cl)cc2)CC1)N/N=C/c1cccc(F)c1`?
RE007 growth inh: -25%; SARS PLpro yeast: 0%; MARV entry inh: inconclusive; Lassa entry inh: inconclusive; StopGo reporter: inconclusive; NS1 function inh: 0%

Results for Cc1ccc(NC(=O)Cn2c(=O)n(CC3CCC(C(=O)NC(C)C)CC3)c(=O)c3sccc32)cc1 (stereo not given) ?
Cruzain inh noDet: -2%; Lassa entry inh: 0%[46.1 µM]; Cruzain inh Det: -1.5%; StopGo reporter: -8%

Results for CC(=O)NC(=S)Nc1ccccc1C(=O)NC1CCCCC1 ?
RE007 growth inh: 4%; SARS PLpro yeast: -3%; Cruzain inh noDet: -6%; MARV entry inh: 23%; Lassa entry inh: 16%; Cruzain inh Det: -0.1%; StopGo reporter: 5%; NS1 function inh: 8%

Results for COCc1nnc(NC(=O)C2CC(=O)N(CCc3ccc(F)cc3)C2)s1 (stereo not given) ?
RE007 growth inh: 0%; SARS PLpro yeast: 1%; MARV entry inh: -4%[46.1 µM]; Lassa entry inh: 13%[46.1 µM]; StopGo reporter: 6%; NS1 function inh: -18%

What do the screens show for `Cc1nc2sc3c(c2c(=O)n1/N=C/c1ccco1)CCCC3`?
RE007 growth inh: inconclusive; SARS PLpro yeast: 5%; Cruzain inh noDet: -19%; MARV entry inh: -8%; Lassa entry inh: 5%; Cruzain inh Det: -7.2%; NS1 function inh: -2%

What do the screens show for `O=C(O)c1c[nH]c2ccc(S(=O)(=O)N(CCCl)CCCl)cc12`?
RE007 growth inh: -16%; SARS PLpro yeast: 10%; Cruzain inh noDet: 2%; MARV entry inh: 2%; Lassa entry inh: 8%; Cruzain inh Det: -0.1%; StopGo reporter: -18%; NS1 function inh: 1%

How did O=c1[nH]c(NC2CCN(S(=O)(=O)c3ccccc3C(F)(F)F)CC2)nc2c1CCCC2 do in these assays?
RE007 growth inh: -6%; SARS PLpro yeast: -11%; MARV entry inh: inconclusive; Lassa entry inh: inconclusive; StopGo reporter: inconclusive; NS1 function inh: -3%

How did Clc1ccc(-c2nnc3sc(Cc4cccs4)nn23)c(Cl)c1 do in these assays?
RE007 growth inh: 16%; SARS PLpro yeast: -8%; Cruzain inh noDet: -25%; MARV entry inh: 9%; Lassa entry inh: 3%; Cruzain inh Det: -9.4%; StopGo reporter: -10%; NS1 function inh: -4%

What do the screens show for `O=C(CSc1nnc(-c2cccnc2)n1Cc1ccco1)Nc1cccc(O)c1`?
RE007 growth inh: 6%; SARS PLpro yeast: 2%; MARV entry inh: inconclusive; Lassa entry inh: 13%; StopGo reporter: -6%; NS1 function inh: 13%

How did CCN1CCN(c2oc(COc3ccc(Cl)cc3)nc2C#N)CC1 do in these assays?
RE007 growth inh: 9%; SARS PLpro yeast: 0%; StopGo reporter: -13%; NS1 function inh: 5%

Results for c1ccc(-n2cccc2)c(N2CCCCC2)c1 ?
RE007 growth inh: 12%; SARS PLpro yeast: -2%; MARV entry inh: -26%[14.2 µM]; Lassa entry inh: 17%; StopGo reporter: -14%; NS1 function inh: 6%

What do the screens show for `CSc1nn(CC(=O)Nc2ccc(C)cc2C)c(N)c1S(=O)(=O)c1ccc(Cl)cc1`?
Cruzain inh noDet: -8%; MARV entry inh: inconclusive; Lassa entry inh: inconclusive; Cruzain inh Det: -8.0%; StopGo reporter: -21%

What do the screens show for `COc1ccc(NS(=O)(=O)c2ccc3c(c2)CCC(=O)N3)cc1O`?
RE007 growth inh: 1%; SARS PLpro yeast: -4%; MARV entry inh: 28%[46.1 µM]; Lassa entry inh: -23%; StopGo reporter: -6%

What do the screens show for `CC(=O)c1cc(-c2ccccc2)[nH]c1N1CCCC1`?
RE007 growth inh: 4%; SARS PLpro yeast: -3%; Cruzain inh noDet: -6%; MARV entry inh: 16%; Lassa entry inh: 3%; Cruzain inh Det: -4.0%; StopGo reporter: -12%; NS1 function inh: 7%

Results for COc1ccccc1NC(=O)c1ccc2[nH]c(C)cc(=O)c2c1 ?
Cruzain inh noDet: 4%; MARV entry inh: -2%[46.1 µM]; Lassa entry inh: inconclusive; Cruzain inh Det: -3.9%; StopGo reporter: -14%

Results for O=C(COC(=O)CNS(=O)(=O)c1ccc(F)c(F)c1F)Nc1ccc(OC(F)F)cc1 ?
RE007 growth inh: 3%; SARS PLpro yeast: -18%; Cruzain inh noDet: inconclusive; MARV entry inh: 22%; Lassa entry inh: 21%; Cruzain inh Det: 22µM*; StopGo reporter: -6%; NS1 function inh: -11%

Results for Cc1csc(NC(=O)CCCC(=O)c2ccccc2)n1 ?
RE007 growth inh: 2%; SARS PLpro yeast: -2%; MARV entry inh: inconclusive; Lassa entry inh: 15%; StopGo reporter: 25%; NS1 function inh: -8%
